Compound activity as filed in PubChem.
JMJD2E inh: JMJD2E (human) inhibition; JMJD2E catalytic domain, FDH-coupled NADH fluorescence (FDH is formaldehyde dehydrogenase); Potency, µM (titrated, usually from 57.1 µM), without a hit: at the top dose activity change, negative = inhibition, usual class: inhibitors; 1.6% of 230,000 active; AID 2147; active = well fitted inhibition curve with a large enough effect, not every such curve was filed as active; inconclusive = small, poorly fitted or top-dose-only effect, or another doubt; inactive = no such curve, though single readings can be large or run the other way;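 note: 0% = wells with enzyme and -100% = buffer wells without enzyme; nearly all actives have a fitted effect of over 50% in size; many of its hits are not listed in these tables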
Tau fibril FP: inhibitors of human tau fibril formation; P10636; K18 P301L tau heparin fibrillization, Alexa594 FP, 6 h; Potency, µM (titrated, usually from 57.7 µM), inactives show at the highest dose activity, negative = inhibition, hits mostly inhibitors; 0.39% of 280,000 active; AID 1468; note: nearly all actives have a fitted effect of over 55% in size
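K18 P301L tau (15 uM unlabeled/0.24 uM Alexa 594-labeled, final) + compound + heparin 20 uM final; 100 mM NaOAc pH 7; 6 hr 37 C; ThT 30 uM final added, 1 hr RT; FP ex 555/em 632 nm.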
RGS12 GoLoco inh: RGS12 GoLoco-Gai1 interaction inhibition; P63096; Gai1:RGS12 GoLoco peptide FP, rhodamine, 10 min; Potency, µM (doses to about 61.6 µM), for the others: at the highest dose activity, negative = inhibition, most hits filed as inhibitors; 0.44% of 230,000 active; active = well fitted inhibition curve with a large enough effect, not every such curve was filed as active; inactive = no such curve, though single readings can be large or run the other way; note: nearly all actives have a fitted effect of over 30% in size; many of its hits are not listed in these tables
Target sequence (P63096 whole entry, looked up): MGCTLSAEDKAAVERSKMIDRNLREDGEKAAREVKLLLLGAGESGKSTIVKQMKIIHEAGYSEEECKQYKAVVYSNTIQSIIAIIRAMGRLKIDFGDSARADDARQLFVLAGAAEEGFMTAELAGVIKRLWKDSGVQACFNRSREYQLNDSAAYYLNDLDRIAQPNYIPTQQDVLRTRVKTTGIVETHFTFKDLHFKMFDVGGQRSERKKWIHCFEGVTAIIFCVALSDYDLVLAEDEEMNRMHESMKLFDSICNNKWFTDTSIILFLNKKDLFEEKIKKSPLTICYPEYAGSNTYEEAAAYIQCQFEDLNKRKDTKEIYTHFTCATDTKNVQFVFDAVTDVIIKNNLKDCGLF
RECQ1 helicase: inhibitors of human RECQ1 DNA helicase; P46063; RECQ1 DNA unwinding, red fluorescence kinetic read; Potency, µM (titrated, usually from 57.3 µM), inactives show at the highest dose activity, negative = inhibition, most hits filed as inhibitors; 0.54% of 240,000 active;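 note: plate controls were vehicle for no effect and no enzyme for full effect; nearly all actives have a fitted effect of over 30% in size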
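RECQ1T1 50 nM; forked duplex (20 bp + 30-nt ss tails) 200 nM, ATP 2 mM final; pH 8.0, 2 mM MgCl2, 2.5 ug/ml poly(dI-dC); 15 min compound preincubation; discontinuous kinetic read over 2 h at RT.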
* = called active by the depositor; & = joins results of further samples; [ ] = dose if it differs, or a comment. Unless noted, calls come from the whole dose curve; as a rule, active = well fitted curve in the direction sought with a large enough effect; inconclusive = small, poorly fitted or top-dose-only effect, or another doubt; inactive = no such curve, though single readings can be large; an effect the other way counts as inactive or inconclusive. Unless noted, % is set by controls: 0 for no effect and ±100 for the full control effect; potency is the fitted concentration of half-maximal effect. Some of the compounds tested; the hit share may differ from the screen's.

C[N+]1(C)C2CC(OC(=O)C(CO)c3ccccc3)CC1C1OC12 (stereo unspecified) was read as JMJD2E inh -3.0%&11.2%&-1.4%, Tau fibril FP 5.1%&-5.2%&-4.0%, RGS12 GoLoco inh -5.6%&4.2%&6.1% and RECQ1 helicase -2.5%&3.1%&10.8%.
`Nc1ccc(Cc2ccc(N)c(Cl)c2)cc1Cl` gave RGS12 GoLoco inh -13.7% and RECQ1 helicase -6.5%.
`C=CCO` gave RGS12 GoLoco inh -10.3% and RECQ1 helicase 15.0%.
`CNC(C)[C@@H](O)c1ccccc1` (stereo partly specified) gave JMJD2E inh -2.0%, Tau fibril FP -4.6%, RGS12 GoLoco inh 7.94µM* and RECQ1 helicase -0.2%.
For C=C1CC[C@@]2(O)[C@H]3Cc4ccc(O)c5c4[C@@]2(CCN3CC2CC2)[C@H]1O5 the results were JMJD2E inh 5.9%, Tau fibril FP -5.9%, RGS12 GoLoco inh 10.0% and RECQ1 helicase -9.8%.
For CCCCCCCCCCCCCCCC[N+](C)(C)C the results were JMJD2E inh -10.6%, Tau fibril FP inconclusive, RGS12 GoLoco inh -1.8%&-1.0% and RECQ1 helicase inactive.
`CNC(C)[C@H](O)c1ccccc1` (stereo partly specified) gave JMJD2E inh 3.8%, Tau fibril FP -4.4%, RGS12 GoLoco inh 1.6% and RECQ1 helicase inactive.
CC(=O)[C@]1(O)CCC2C3CCC4=CC(=O)CC[C@@]4(C)C3CC[C@]21C (stereo partly specified) was read as JMJD2E inh -1.8%, Tau fibril FP -4.8%, RGS12 GoLoco inh 16.2% and RECQ1 helicase -2.3%.
c1ccc2c(c1)Sc1ccccc1N2CC1CN2CCC1CC2 (stereo unspecified) was read as JMJD2E inh 5.4%, Tau fibril FP 9.0%, RGS12 GoLoco inh 1.9% and RECQ1 helicase 13.1%.
For C[C@@H]1O[C@H](O[C@H]2C[C@@H](O)[C@@]3(CO)[C@H]4[C@@H](O)C[C@]5(C)[C@@H](C6=CC(=O)OC6)CC[C@]5(O)[C@H]4CC[C@]3(O)C2)[C@@H](O)[C@H](O)[C@@H]1O the results were JMJD2E inh 5.4%[25.5 µM], RGS12 GoLoco inh 9.1%[21.6 µM] and RECQ1 helicase -8.1%[25.9 µM].
